Compound activity: PubChem, National Center for Advancing Translational Sciences (NCATS)
nsP2pro inh = CHIKV nsP2 protease inhibition, primary qHTS | AID 1964107 | 31,000 tested, 1.1% active | FRET peptide cleavage, nsP2pro, fluorescence 1 h | Potency, µM (top dose mostly 24.9 µM), for the others: at the top dose activity change, negative = inhibition, usual class: inhibitors | Q8JUX6; active means well fitted inhibition curve with a large enough effect; inconclusive means small, poorly fitted or top-dose-only effect; inactive means no such curve, though single readings can be large or run the other way; also: nearly all actives have a fitted effect of over 60% in size; a reference inhibitor and vehicle were the controls
Target sequence (Q8JUX6 whole entry, looked up): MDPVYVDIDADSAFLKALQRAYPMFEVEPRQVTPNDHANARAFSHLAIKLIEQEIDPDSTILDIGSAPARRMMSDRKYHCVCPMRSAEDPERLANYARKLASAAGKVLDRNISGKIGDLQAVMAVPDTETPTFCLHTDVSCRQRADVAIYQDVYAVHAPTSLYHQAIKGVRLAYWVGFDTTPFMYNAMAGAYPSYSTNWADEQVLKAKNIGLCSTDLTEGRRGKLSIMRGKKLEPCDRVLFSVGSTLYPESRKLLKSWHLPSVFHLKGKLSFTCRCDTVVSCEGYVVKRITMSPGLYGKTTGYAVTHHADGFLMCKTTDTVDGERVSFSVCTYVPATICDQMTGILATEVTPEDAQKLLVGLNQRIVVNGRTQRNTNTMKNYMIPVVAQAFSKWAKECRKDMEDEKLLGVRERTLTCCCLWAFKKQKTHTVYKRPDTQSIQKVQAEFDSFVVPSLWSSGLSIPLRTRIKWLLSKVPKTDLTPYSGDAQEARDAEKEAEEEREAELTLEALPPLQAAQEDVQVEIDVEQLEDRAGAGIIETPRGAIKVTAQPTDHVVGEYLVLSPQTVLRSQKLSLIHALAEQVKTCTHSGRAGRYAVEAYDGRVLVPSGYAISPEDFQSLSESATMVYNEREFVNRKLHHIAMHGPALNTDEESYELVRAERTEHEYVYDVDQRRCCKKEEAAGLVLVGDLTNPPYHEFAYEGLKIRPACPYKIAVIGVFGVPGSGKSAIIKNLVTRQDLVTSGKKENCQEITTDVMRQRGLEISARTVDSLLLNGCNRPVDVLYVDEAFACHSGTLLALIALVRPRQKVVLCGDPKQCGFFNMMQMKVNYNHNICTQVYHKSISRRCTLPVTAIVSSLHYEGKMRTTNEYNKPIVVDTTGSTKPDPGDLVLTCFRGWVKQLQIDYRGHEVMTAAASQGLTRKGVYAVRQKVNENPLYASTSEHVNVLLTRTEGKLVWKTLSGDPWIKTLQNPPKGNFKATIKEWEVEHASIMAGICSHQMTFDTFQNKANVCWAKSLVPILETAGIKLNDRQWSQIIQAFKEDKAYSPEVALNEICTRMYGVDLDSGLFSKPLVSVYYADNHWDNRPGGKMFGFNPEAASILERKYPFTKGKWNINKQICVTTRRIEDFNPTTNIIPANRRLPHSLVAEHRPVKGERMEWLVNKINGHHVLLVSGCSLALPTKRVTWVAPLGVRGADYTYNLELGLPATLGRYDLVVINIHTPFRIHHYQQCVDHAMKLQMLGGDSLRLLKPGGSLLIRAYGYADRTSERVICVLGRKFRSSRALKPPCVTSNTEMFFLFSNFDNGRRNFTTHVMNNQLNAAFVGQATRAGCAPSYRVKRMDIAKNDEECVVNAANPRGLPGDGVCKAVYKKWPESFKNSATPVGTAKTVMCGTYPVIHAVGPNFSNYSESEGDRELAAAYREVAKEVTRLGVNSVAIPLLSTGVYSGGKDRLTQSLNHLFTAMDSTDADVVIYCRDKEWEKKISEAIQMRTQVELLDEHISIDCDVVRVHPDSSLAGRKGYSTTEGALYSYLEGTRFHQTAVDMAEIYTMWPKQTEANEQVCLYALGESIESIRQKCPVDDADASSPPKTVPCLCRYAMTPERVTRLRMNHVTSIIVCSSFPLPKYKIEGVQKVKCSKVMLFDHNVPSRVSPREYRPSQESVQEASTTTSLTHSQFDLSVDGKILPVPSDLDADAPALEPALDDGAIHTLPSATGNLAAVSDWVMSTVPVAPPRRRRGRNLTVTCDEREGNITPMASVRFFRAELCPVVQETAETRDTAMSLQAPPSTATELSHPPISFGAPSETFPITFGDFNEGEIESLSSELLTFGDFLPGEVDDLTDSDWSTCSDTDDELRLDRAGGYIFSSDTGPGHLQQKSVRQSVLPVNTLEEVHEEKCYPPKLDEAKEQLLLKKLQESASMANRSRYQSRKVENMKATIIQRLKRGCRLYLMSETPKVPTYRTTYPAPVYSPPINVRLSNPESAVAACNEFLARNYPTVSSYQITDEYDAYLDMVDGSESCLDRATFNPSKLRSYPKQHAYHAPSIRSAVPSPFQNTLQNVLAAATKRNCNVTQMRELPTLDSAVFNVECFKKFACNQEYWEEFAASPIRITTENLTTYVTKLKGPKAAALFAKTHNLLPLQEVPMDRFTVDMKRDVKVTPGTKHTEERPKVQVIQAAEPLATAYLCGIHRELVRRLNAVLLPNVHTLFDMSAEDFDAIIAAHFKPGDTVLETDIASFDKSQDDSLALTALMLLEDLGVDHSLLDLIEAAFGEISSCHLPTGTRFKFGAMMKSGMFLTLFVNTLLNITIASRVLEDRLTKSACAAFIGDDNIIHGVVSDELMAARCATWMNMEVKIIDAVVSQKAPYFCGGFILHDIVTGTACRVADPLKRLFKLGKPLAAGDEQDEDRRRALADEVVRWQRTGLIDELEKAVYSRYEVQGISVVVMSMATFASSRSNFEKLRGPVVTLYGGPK
* hit, by the source's call; i = inactive; ? = inconclusive; & = joins results of further samples; [ ] = remark or other dose. % is scaled to controls: 0 for no effect and ±100 for the full control effect; potency is read from the fitted curve at half-maximal effect. Some of the compounds tested; the hit share may differ from the screen's.

smiles	nsP2pro inh
CC1(C)CC[C@]2(C(=O)O[C@@H]3O[C@H](CO)[C@@H](O)[C@H](O)[C@H]3O)CC[C@]3(C)C(=CCC4[C@@]5(C)C[C@@H](O)[C@H](O)[C@@](C)(CO)C5[C@H](O)C[C@]43C)C2[C@@H]1O (stereo partly drawn)	155.1%[activator][10 µM]
Cc1cc2c(cc1S(=O)(=O)C(C)CC(=O)NC1CCC(C)CC1)OCC(=O)N2 (stereo not drawn)	-15.6%
O=C(Nc1c(C(=O)O)oc2ccccc12)c1ccc(C(F)(F)F)cc1	-19.5%
Cc1ccc(NC(=O)c2ccc(-n3c(C)nnc3C)cc2)cc1F	-13.3%
Cc1ccc(-n2nc(C(C)(C)C)cc2NC(=O)Nc2cc(COc3cccnc3)[nH]n2)cc1	15.7%
Cc1ccc(-c2c(C)n3c4c(=O)n(C)c(=O)n(C)c4nc3n2-c2cccc(O)c2)cc1	4.2%
COc1ccc(CNc2ccc(S(=O)(=O)Nc3nccs3)cc2)cc1O	i
O=C1NCC2(CCN(C(=O)c3ccccc3C3CCNC3)CC2)O1 (stereo not drawn)	-1.3%
CC(C)NC(=O)c1cc2c(Cl)nc3ccccc3c2s1	-19.2%
COc1ccc(C2(C(=O)N3C[C@@H](Oc4cccnc4)C[C@H]3C(=O)NC3CC3)CC2)cc1	i
O=C(Nc1ccc(C[C@@H]2CC[C@H]([C@H](O)c3ccccc3)N2)cc1)[C@@H]1CCc2nccc(=O)n21	-7.8%
COc1ccc(CNC(=O)c2cc3c(=O)n(Cc4cccs4)ccc3nc2C)cc1	-12.1%
N#Cc1cccnc1-c1cccc(C(=O)NCCN[S+](=O)([O-])c2cccc(C(F)(F)F)c2)c1	-5.1%
COc1cccc(C(=O)c2sc(Nc3ccc(C)cc3C)c(S(=O)(=O)c3ccccc3)c2N)c1	-10.7%
CC1(C)O[C@@H]2C[C@H]3[C@@H]4CCC5=CC(=O)CC[C@]5(C)[C@@]4(F)[C@@H](O)C[C@]3(C)[C@]2(C(=O)CCl)O1	-1.0%
CCn1cc(C(=O)N2C[C@H](CO)C[C@H](CN3CCCC3)C2)c(C)n1	2.8%
COc1ccccc1CNC(=O)Cn1ncc2c(C)n(Cc3ccccc3Cl)c(C)c2c1=O	-21.9%
O=C(NCCc1ccncc1)C1CN(C(=O)C2CCCCC2)CC12CCOCC2 (stereo not drawn)	?
CCc1ccc(CNC(=O)c2ccc3c(c2)N=C(C)c2cc(C)ccc2S3)cc1	-5.1%
CCc1cccc(NC(=O)c2c(C)oc3nc(C)nc(N4CCCC4)c23)c1	-5.3%

5 structures from above, sorted by formula weight, rising.
smiles	nsP2pro inh
CCc1ccc(CNC(=O)c2ccc3c(c2)N=C(C)c2cc(C)ccc2S3)cc1	-5.1%
O=C(Nc1ccc(C[C@@H]2CC[C@H]([C@H](O)c3ccccc3)N2)cc1)[C@@H]1CCc2nccc(=O)n21	-7.8%
CC1(C)O[C@@H]2C[C@H]3[C@@H]4CCC5=CC(=O)CC[C@]5(C)[C@@]4(F)[C@@H](O)C[C@]3(C)[C@]2(C(=O)CCl)O1	-1.0%
COc1ccccc1CNC(=O)Cn1ncc2c(C)n(Cc3ccccc3Cl)c(C)c2c1=O	-21.9%
COc1cccc(C(=O)c2sc(Nc3ccc(C)cc3C)c(S(=O)(=O)c3ccccc3)c2N)c1	-10.7%

(further entries)
smiles	nsP2pro inh
C/C(=C\c1ccc(F)cc1)C1Nc2cccc3cccc(c23)N1	i
CCCCc1ccc(C(=O)Nc2ccc3nc(N(CC)CC)cc(C)c3c2)cc1	-20.1%
Cc1ccc(CS(=O)(=O)c2ncc(Cl)c(C(=O)Nc3nc4ccc(F)cc4s3)n2)cc1	-0.1%
Cc1ccc(Cl)cc1NC(=O)CCC(=O)N1CC(C)Sc2ccccc21 (stereo not drawn)	-17.4%
Cc1c(CO)cccc1NC(=O)c1ccc(CN2CCCC(C)C2)cc1 (stereo not drawn)	i
CCOC(=O)[C@H]1O[C@@H]1C(=O)N[C@@H](CC(C)C)C(=O)NCCC(C)C	8.81µM*
Cc1ccc(OCCCn2c(C3CC(=O)N(c4cccc(Cl)c4)C3)nc3ccccc32)c(C)c1 (stereo not drawn)	-21.0%
COC(=O)c1ccnc(-c2cc(C(=O)Nc3ccc(C4(N)CC4)cc3)ccn2)c1	277.9%[activator]
COc1ccc(-c2cc3ccc(O)c(CN4CCCC(C)C4)c3oc2=O)cc1 (stereo not drawn)	-13.5%
Cc1ccc(NS(=O)(=O)c2ccccc2C(=O)Nc2nc(-c3ccccc3)cs2)cc1	?
COCC1CN(Cc2cccc(C#N)c2)CC12CCNCC2 (stereo not drawn)	10.7%
CC1=C(C(=O)Nc2nncs2)C(c2nn(C)cc2Cl)N=C(Nc2nc3ccccc3o2)N1 (stereo not drawn)	i
CN(C)Cc1cn(C[C@H]2C[C@@H](NS(=O)(=O)c3ccccc3)[C@H](O)[C@@H]2O)nn1	-7.2%[39.2 µM]
CCC1=C(c2ccc(C)cc2)S(=O)(=O)N=C1N1CCC(C(=O)NCCc2cccc(OC)c2)CC1	-11.3%
COc1ccc(C2Nc3ccccc3C(=O)N2Cc2ccccc2OC)cc1COc1ccc(NC(C)=O)cc1 (stereo not drawn)	?
COc1cccc(CNC(=O)COCc2cc(-c3ccc4c(c3)OCO4)on2)c1	-24.2%
CN(Cc1cccn1C)C(=O)c1cccc(Cl)c1	-17.4%[39.2 µM]
Cc1ccc(C(=O)N2C[C@@H](C)[C@](O)(C3CC3)C2)s1	i
N#Cc1cccnc1N1CCN(c2nccc(N3CCCC(O)C3)n2)CC1 (stereo not drawn)	4.7%
CC(Cc1ccc(O)c(O)c1)C(C)Cc1ccc(O)c(O)c1 (stereo not drawn)	9.88µM*
CC(Oc1ccccc1)C(=O)OCc1cc(=O)n2nc(C(C)C)sc2n1 (stereo not drawn)	-16.0%
O=C(c1ccc(-c2noc(C3CC3)n2)cc1)N1CCC2(CCOCC2)CC1	i
COc1cccc(-n2c(=O)c3sc4ccccc4c3n(CC(=O)Nc3cccc(Cl)c3)c2=O)c1	-13.4%
O=C(NC1CC1)C1CCc2nnc(-c3cccnc3)n21 (stereo not drawn)	-10.7%[39.2 µM]
O=C(NCC1CCCCN1)c1cc(OCC(F)(F)F)ccc1OCC(F)(F)F (stereo not drawn)	1.8%
Cc1ccc(/C=C/c2nc3ccccc3[nH]2)cc1	2.2%
Nc1cc(F)ccc1NC(=O)c1ccc(CNC(=O)/C=C/c2cccnc2)cc1	-16.7%
Cc1ccc(CNc2ncnc3c2cnn3-c2ccc(C)cc2C)cc1	-15.0%
CC1CCC2(C=O)C(CO)=CCCC2C1(C)CC(=O)O (stereo not drawn)	209.2%[activator]
Cc1ccc(CNC(=O)CN2N=C(c3ccc(C)cc3)CCC2=O)cc1	-17.2%

Not a retest: 2 of the compounds above.
smiles	nsP2pro inh
CN(Cc1cccn1C)C(=O)c1cccc(Cl)c1	-17.4%[39.2 µM]
Cc1ccc(C(=O)N2C[C@@H](C)[C@](O)(C3CC3)C2)s1	i

The listing continues:
smiles	nsP2pro inh
O=C1NC(Cc2ccc(O)cc2)C(=O)N2CCCC12 (stereo not drawn)	-25.5%
Cc1ccc(CNC(=O)CSc2c3c(nc4ccc(Cl)cc24)CCCC3)cc1	-17.9%
CC(=O)NC[C@H]1CN(c2ccc(N3CCOCC3)c(F)c2)C(=O)O1	-4.7%&-8.0%
CCn1c(SCC(=O)N2CCC(C)CC2)nnc1-c1ccccc1O	-16.8%
Cn1nnnc1Sc1ncnc2scc(-c3ccc4ccccc4c3)c12	i
C=C1C(=O)O[C@@H]2/C=C(\C)CC/C=C(\C(=O)O[C@@H]3O[C@H](CO)[C@@H](O)[C@H](O)[C@H]3O)CC[C@@H]12	20.8%[10 µM]
O=C(CSc1oc(-c2ccco2)nc1S(=O)(=O)c1ccc(Br)cc1)c1ccccc1	?
Cc1cccc(CNc2ccnc(-c3ccccc3F)n2)c1	-1.6%
CC(=O)O[C@@H]1CC2C3CCc4cc(OC(=O)c5ccccc5)ccc4C3CCC2(C)[C@H]1OC(C)=O (stereo partly drawn)	2.7%
CCn1c(CO)nnc1C1CC(NC(=O)c2sccc2N)C1 (stereo not drawn)	-4.6%
CCOc1ccc(NC(=O)CN(c2ccc(CC)cc2)S(=O)(=O)c2c(C)noc2C)cc1	-15.2%
COCC1CN(Cc2ccsc2)CC12CCNCC2 (stereo not drawn)	-1.0%
Cc1ccc(C)c(CC(=O)NCc2cc3n(n2)CCN(C(=O)N(C)C)C3)c1	-0.1%
COc1ccc(-c2oc3ncn4nc(COc5ccc(Cl)cc5)nc4c3c2-c2ccc(OC)cc2)cc1	-18.5%
O=C(C1CCCC1)N1Cc2ccccc2CC2(CCCN(Cc3ccccc3)C2)C1 (stereo not drawn)	-6.3%
CCC(C)C(=O)O[C@@H]1[C@@H](O)[C@@H](O[C@H]2O[C@H](CO)[C@@H](O)[C@H](O)[C@H]2O)O[C@H](CO)[C@H]1O (stereo partly drawn)	?
COc1ccc(OC)c(-c2nnc3n2N=C(c2ccccc2OC)CS3)c1	i
CCC1(c2ccccc2)C(=O)NCNC1=O	-9.5%
COc1cc(OC)c(OC)cc1CN1CCc2nc(N3CCN(c4ncccn4)CC3)ncc2C1	?
Cn1nnnc1Sc1ncnc2scc(Br)c12	i

(continued)
compound | nsP2pro inh
COc1ccc(C(=O)N2CCC(c3ccncc3)CC2)cc1OC | -3.7%
COc1ccc(C(=O)Nc2cc(C(C)C)c(O)c(S(=O)(=O)c3ccc(Cl)cc3)c2C)cc1 | -14.4%
O=C(N1CCCC1)N1CCCC(c2nnc3n2CCNC3)C1 (stereo not drawn) | ?
Cc1nn(Cc2noc(C(=O)NC(C)c3ccccc3)n2)c(C)c1Br (stereo not drawn) | -13.8%
O=C(CSc1ccc2nc(-c3ccccc3)cn2n1)Nc1ccccc1C(F)(F)F | -13.8%
COc1ccc(C2=Nc3ccccc3NC(c3cccs3)=N2)cc1 | -8.8%
CC(=O)OC1CCC2(C)C(=CCC3C2CCC2(C)C(c4cccnc4)=CCC32)C1 (stereo not drawn) | -5.7%
CC(C)c1ccc(CNC(=O)c2ccc(N3CCCC3)c(NC(=O)NCc3ccccc3)c2)cc1 | -21.7%

A second format for some results above:
molecule: O=C(CSc1ccc2nc(-c3ccccc3)cn2n1)Nc1ccccc1C(F)(F)F
  nsP2pro inh = -13.8%
molecule: COc1ccc(C(=O)N2CCC(c3ccncc3)CC2)cc1OC
  nsP2pro inh = -3.7%

New compounds follow
compound | nsP2pro inh
OCC(O)C(c1c[nH]c2ccccc12)c1c[nH]c2ccccc12 (stereo not drawn) | 46.6%[activator]
CCCN1CCN(CCCNC(=O)c2ccc3c(c2)sc2nc(-c4ccc(C)cc4)cn23)CC1 | 44.6%[activator]
COc1ccc(C(=O)N2CCC3(CC2)CCC(O)(CN(C)C)CC3)cc1OC | -0.1%
CCCS(=O)(=O)Nc1ccc(=O)n2c1[C@@H]1C[C@@H](CN(S(=O)(=O)c3ccc(OC)cc3)C1)C2 | ?
CNc1oc(-c2cccc(-c3ccccc3)c2)nc1C#N | 4.2%
COc1ccccc1CNC(=O)C(NS(=O)(=O)c1cccs1)C(C)C (stereo not drawn) | -2.4%
C[C@]12CC[C@H]3[C@@H]([C@H](O)CC4=CC(=O)CC[C@@]43C)[C@@H]1CC[C@@H]2O | 2.9%
CCN(Cc1cccnc1)C(=O)CN(c1ccc(OC)nc1)S(=O)(=O)c1ccccc1C | 1.1%
O=C1c2ccccc2C(=O)c2oc(-c3cccnc3)nc21 | 3.13µM*
CCn1cc(C(=O)NCc2ccc(C)cc2)c(=O)c2cc(S(=O)(=O)N3CCCCCC3)ccc21 | -5.2%
O=C(NCc1nnc2n1C(C(=O)N1CCCC1)CC2)c1cccnc1 (stereo not drawn) | 7.0%
CN(C)c1ccc(C(=O)N2CCN3C(=O)N(CC(N)=O)C(=O)[C@@H]3C2)cc1 | -9.4%[39.2 µM]
O=C1CN(Cc2ccc(Cl)cc2)CCN1c1ccc(Cl)nn1 | 4.2%[39.2 µM]
Cn1c2cc(CO)sc2c2cnn(Cc3ccccc3F)c(=O)c21 | -5.6%
CCCc1cc(=O)[nH]c(SCC(=O)N2CCN(c3ccccc3OC)CC2)n1 | -22.9%
Cc1cccc(CNc2ncnc3ccc(-c4cccc(C)c4)cc23)c1 | i
CCOC(=O)Cc1ccc(NC(=O)Nc2cccc(OCc3cc(=O)n4cc(C)ccc4n3)c2)cc1 | -11.6%
C=CC(=O)N1CC(N2CCN(C(=O)CNc3cc(C4CC4)c(Cl)cc3O)CC2)C1 | ?
CCCc1sc(NC(=O)C[C@H]2NC(=O)c3ccccc3NC2=O)nc1C(=O)OC | i
CNC[C@H](O)c1cccc(O)c1 | 2.3%
CC(C)n1nc(Cc2cccc3ccccc23)c2c(N)ncnc21 | -5.5%
CCOC(=O)Cn1nc(C)c(NC(=O)COc2ccc(C)c(C)c2)c1C | -12.2%
O=C(NCCc1nc2ccccc2n1CCOc1cccc(Br)c1)C1CCCCC1 | 2.7%
C[C@H]1CN(C(=O)CC#N)[C@]12CCN(c1ncnc3[nH]ccc13)C2 | -4.6%
COCCCNC(=O)c1ccc2nnc(Cc3ccc(Cl)cc3)n2c1 | 1.4%[39.2 µM]
O=C(Cn1c(SCCOc2ccc(Cl)cc2)nc2ccccc21)N1CCCCC1 | -16.6%
O=c1c(-c2cc(-c3ccccc3)nc3c2COc2ccc(Cl)cc2-3)coc2ccc(F)cc12 | -15.1%
N#Cc1ccc(COC[C@H]2O[C@@H](n3c(NCc4ccc(Cl)c(Cl)c4)nc4c(N)ncnc43)[C@H](O)[C@@H]2O)cc1 | -7.1%
Cc1cc(Br)ccc1NC(=O)C(NS(=O)(=O)c1cccs1)c1ccccc1 (stereo not drawn) | -16.5%
COc1ccc(-c2cc(N3CCCC(NC(=O)C4CCCC4)C3)n[nH]2)cc1 (stereo not drawn) | 1.5%
CCOC(=O)C1CCN(C(=O)C2CCc3nnc(CN[S+](C)(=O)[O-])n32)CC1 (stereo not drawn) | -10.9%
O=C(O)CCc1cc(C(=O)c2ccc(OC3CCCC3)cc2O)ccc1OCc1ccc2c(=O)[nH]oc2c1 | 32.0%
